HSV replic up: increases HSV replication in cells; HSV replication augmentation in cells, fold increase; maximum fold increase; actives 0.005% (n = 220,000); AID 1956;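 active = peak rise of 1.5-fold or more in the series; tested in PC3 cells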;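 note: first round at 10 µM; read as green reporter fluorescence; hits show the peak of a series up to 25 µM; 1 = signal of infected wells without compound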
RGS16-Gao: RGS16-Galphao interaction regulator (human) | AID 1441 | binding response (% of control), % at 10 µM | bead-based flow cytometry RGS16-Galphao binding, fluorescence; actives lie on both sides | actives 0.38% (n = 220,000) | O15492+P09471;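 active = below 25% or above 175%, edge rows of some plates excepted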;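 note: Galphao activated by GDP with aluminum fluoride before binding; 100% = wells without compound and 0% = beads without RGS; some results beyond the cut were filed as inactive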
Target sequence (O15492 whole entry, looked up): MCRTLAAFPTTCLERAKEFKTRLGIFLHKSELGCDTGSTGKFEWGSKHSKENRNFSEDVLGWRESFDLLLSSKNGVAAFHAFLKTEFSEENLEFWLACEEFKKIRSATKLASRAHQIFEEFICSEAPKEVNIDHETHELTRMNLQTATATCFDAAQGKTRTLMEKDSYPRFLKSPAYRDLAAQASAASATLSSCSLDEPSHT
Target sequence (P09471 whole entry, looked up): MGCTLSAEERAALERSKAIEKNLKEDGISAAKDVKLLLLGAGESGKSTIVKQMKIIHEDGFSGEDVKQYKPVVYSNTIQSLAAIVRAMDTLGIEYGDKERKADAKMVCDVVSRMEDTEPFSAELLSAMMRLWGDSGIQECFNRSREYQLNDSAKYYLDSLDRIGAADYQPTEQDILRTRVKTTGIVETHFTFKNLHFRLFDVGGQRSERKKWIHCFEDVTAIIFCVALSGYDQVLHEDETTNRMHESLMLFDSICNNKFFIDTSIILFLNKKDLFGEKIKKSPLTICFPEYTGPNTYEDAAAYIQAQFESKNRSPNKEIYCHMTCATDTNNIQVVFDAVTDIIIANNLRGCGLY
PKD1 inh: inhibitors of human PKD1 kinase. Q15139. PKD1 kinase fluorescence polarization assay. inhibition, %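 (about 10 µM by stock and volumes)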. actives 0.056% (n = 200,000);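 active = inhibition of 50% or more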;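 note: controls were vehicle for no effect and a reference inhibitor for full effect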
GALR2 agonist: activates the human galanin receptor 2; O43603; GALR2-expressing cells, agonist activation read-out; activation, %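 (tested at 5 µM)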; actives 0.48% (n = 140,000);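 active = above mean plus 3 SD of all compounds, about 5% in these data, not always enough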;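 note: 0% = vehicle buffer wells and 100% = reference agonist at full effect; tested in CHO reporter cells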
Target sequence (O43603 whole entry, looked up): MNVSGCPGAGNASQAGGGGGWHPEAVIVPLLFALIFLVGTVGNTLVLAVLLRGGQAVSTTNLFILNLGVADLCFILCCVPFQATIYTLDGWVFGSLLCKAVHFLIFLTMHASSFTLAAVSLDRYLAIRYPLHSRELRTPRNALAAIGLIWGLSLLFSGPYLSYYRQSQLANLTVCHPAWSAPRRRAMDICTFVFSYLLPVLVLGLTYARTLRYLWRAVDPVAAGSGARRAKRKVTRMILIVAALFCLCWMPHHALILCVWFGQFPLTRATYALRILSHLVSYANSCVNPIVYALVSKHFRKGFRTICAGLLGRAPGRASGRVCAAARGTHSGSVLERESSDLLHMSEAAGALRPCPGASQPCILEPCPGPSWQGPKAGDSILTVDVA
INS promoter inh: TRM-6 insulin promoter activity inhibition | inhibition, % at 2 µM | TRM-6 cells (human fetal islet line), insulin promoter-eGFP reporter, imaging; reporter expression induced with tamoxifen | actives 0.9% (n = 130,000) | AID 1273;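 active = inhibition above the mean plus 3 SD, with well images judged a real hit on visual review, cut at about 60% in these data, passing the limit was not always enough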
INS promoter inh cell count: recorded beside INS promoter inh, whose call it bears; normalized cell count, %; measured here: cell count, toxicity; reference of the scale not given here;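 cells exposed to compound for 48 h; stained nuclei by imaging scaled within each plate; lower means fewer cells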
HSV replic up primary fold: recorded beside HSV replic up, whose call it bears; fold increase; compound at 10 µM; measured here: primary screen fold increase 10 uM; tested in PC3 cells;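 GFP signal in the first replicate; 1 = infected wells without compound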
Starred values were filed as active, the others as inactive.

CCOC(=O)N1CCC(N2Cc3cccc(C(=O)NCC4CCN(CC(C)C)C4)c3C2=O)CC1 (centres undefined) was read as HSV replic up inactive, RGS16-Gao 97, PKD1 inh -1, GALR2 agonist 0.4 and HSV replic up primary fold 1.
For O=C(CN1CCCCCC1)NCC1CCCO1 (centres undefined) the results were HSV replic up inactive, RGS16-Gao 102, PKD1 inh 9 and HSV replic up primary fold 1.
Cc1nc(C)c(-c2csc(Nc3cccnc3)n2)s1 was read as HSV replic up inactive, RGS16-Gao 96, PKD1 inh -8, GALR2 agonist 0.4, INS promoter inh 87*, INS promoter inh cell count 146* and HSV replic up primary fold 0.8.
Screening CC1=NN(C(=O)c2c(Br)c(C)nn2C)C(O)(C(F)(F)F)C1 (centres undefined) returned HSV replic up inactive, RGS16-Gao 95, PKD1 inh 1, GALR2 agonist 0.2, INS promoter inh 0, INS promoter inh cell count 99 and HSV replic up primary fold 1.1.
COc1ccc(OC)c(NC(=S)NCC(c2cccnc2)N2CCOCC2)c1 (centres undefined) was read as HSV replic up inactive, RGS16-Gao 103, PKD1 inh -1, INS promoter inh -7, INS promoter inh cell count 120 and HSV replic up primary fold 0.97.
Screening CC(=O)NC1CC2CCC(C1)N2Cc1ccc(C)cc1 (centres undefined) returned HSV replic up inactive, RGS16-Gao 105, PKD1 inh -10, GALR2 agonist -2.9 and HSV replic up primary fold 0.93.
`Cc1ccc(CCc2nnc(SCC(=O)Nc3cccc(Cl)c3)n2-c2ccccc2)o1` gave RGS16-Gao 106, PKD1 inh -5 and GALR2 agonist -1.4.
`O=C(NC(=S)NNC(=O)c1ccc(Cl)cc1Cl)c1cccnc1` gave HSV replic up inactive, RGS16-Gao 104, PKD1 inh 7, GALR2 agonist -0.1, INS promoter inh -19, INS promoter inh cell count 160 and HSV replic up primary fold 1.
Screening COc1ccc(Nc2nc(CC(C)=O)ns2)cc1OC returned HSV replic up inactive, RGS16-Gao 106, PKD1 inh 1, GALR2 agonist -1.8 and HSV replic up primary fold 0.94.
Screening CCc1cc(CNC(=O)CC2C(=O)NCCN2Cc2ccccc2C(F)(F)F)on1 (centres undefined) returned HSV replic up inactive, RGS16-Gao 98 and HSV replic up primary fold 1.
Screening COc1ccc(C(=O)N/N=C/c2ccc3cccc(O)c3n2)cc1 returned HSV replic up inactive, RGS16-Gao 104, PKD1 inh -1 and HSV replic up primary fold 0.95.
`CC12CCC(C/C1=N\OC(=O)c1c(F)cccc1F)C2(C)C` (centres undefined) gave HSV replic up inactive, RGS16-Gao 102 and HSV replic up primary fold 1.
`CCOC(=O)C1C(c2ccc(O)c(OCC)c2)NC(=S)NC1(O)C(F)(F)F` (centres undefined) gave HSV replic up inactive, RGS16-Gao 116, PKD1 inh 7, GALR2 agonist -1.8 and HSV replic up primary fold 1.
Screening CSc1nc(-c2ccccc2)[nH]c(=S)c1C(C)=O returned HSV replic up inactive, RGS16-Gao 97, PKD1 inh -1, GALR2 agonist -3.4, INS promoter inh 13, INS promoter inh cell count 122 and HSV replic up primary fold 1.1.
Screening Cc1cc(C)n(CC(O)Cn2c3ccccc3c3ccccc32)n1 (centres undefined) returned HSV replic up inactive, RGS16-Gao 102, PKD1 inh 5, GALR2 agonist -0.9, INS promoter inh -314, INS promoter inh cell count 101 and HSV replic up primary fold 0.9.
CC(C)NC(=O)CN1CCN(C(=O)CCl)CC1 was read as HSV replic up inactive, RGS16-Gao 103, PKD1 inh -1, INS promoter inh 8, INS promoter inh cell count 121 and HSV replic up primary fold 0.96.
For Cc1ccccc1OCC(=O)NCCC1=CCCCC1 the results were RGS16-Gao 101, PKD1 inh 10, GALR2 agonist -1.0, INS promoter inh -117 and INS promoter inh cell count 46.
`Cc1n[nH]c(=S)n(/N=C/c2ccccn2)c1=O` gave HSV replic up inactive, RGS16-Gao 99, PKD1 inh -8, GALR2 agonist -1.5 and HSV replic up primary fold 0.74.
`CCOC(=O)N1CCC(N2Cc3cccc(C(=O)N4CCN(C5CCCCC5)CC4)c3C2=O)CC1` gave HSV replic up inactive, RGS16-Gao 109, PKD1 inh -4, GALR2 agonist -1.0 and HSV replic up primary fold 1.
`Cc1cc(NC(=O)c2cc(S(=O)(=O)N3CCCCC3)ccc2C)n(-c2ccccn2)n1` gave HSV replic up inactive, RGS16-Gao 94, PKD1 inh -13, GALR2 agonist -0.7, INS promoter inh 0, INS promoter inh cell count 114 and HSV replic up primary fold 0.97.
COc1ccc(CN(C#N)c2nc(SC)nc(N(C)C)n2)cc1 was read as HSV replic up inactive, RGS16-Gao 107, PKD1 inh 1, GALR2 agonist -1.9 and HSV replic up primary fold 0.92.
Screening Cc1cc2nnc(SCC(=O)N3CCCCCC3)n2c(N)n1 returned HSV replic up inactive, RGS16-Gao 102, PKD1 inh -7 and HSV replic up primary fold 1.
For CC(=O)NCC(=O)N(Cc1ccco1)C1(C(=O)NC2CCCC2)CCCCC1 the results were HSV replic up inactive, RGS16-Gao 95, PKD1 inh -2 and HSV replic up primary fold 0.96.
`Cc1[nH]n(-c2ccc(Br)cc2)c(=O)c1C=Nc1ccc(S(=O)(=O)Nc2nccs2)cc1` gave HSV replic up inactive, RGS16-Gao 178, PKD1 inh -4, GALR2 agonist 0.7 and HSV replic up primary fold 1.1.
`Cc1ccc(NC(=O)CSc2n[nH]c(=O)n2C2CC2)cc1S(=O)(=O)N1CCOCC1` gave HSV replic up inactive, RGS16-Gao 104, PKD1 inh -6, GALR2 agonist -0.1, INS promoter inh 21, INS promoter inh cell count 111 and HSV replic up primary fold 0.87.
Screening CCC/C(O)=C1\C(=O)CC(C)(C)CC1=Nc1ccccc1O returned HSV replic up inactive, RGS16-Gao 98, PKD1 inh -3 and HSV replic up primary fold 1.
Screening Cc1ccc(N(CC(O)CN2C(=O)NC(C)(C)C2=O)S(=O)(=O)c2ccc(C)cc2)cc1 (centres undefined) returned HSV replic up inactive, RGS16-Gao 101 and HSV replic up primary fold 0.94.
CSc1nc2ccc(NS(=O)(=O)c3ccc(Br)s3)cc2s1 was read as HSV replic up inactive, RGS16-Gao 103 and HSV replic up primary fold 1.
For NCCCC[C@H]1CN=C(N)N1CCC12CC3CC(CC(C3)C1)C2 the results were HSV replic up inactive, RGS16-Gao 105 and HSV replic up primary fold 1.1.
COc1ccc(-c2nn(-c3ccccc3)cc2/C=N/Nc2ccc(Cl)c(C(=O)O)c2)cc1OC was read as HSV replic up inactive, RGS16-Gao 96 and HSV replic up primary fold 1.1.
Screening CCOC(=O)c1ccc(N=c2sc(C(=O)OC)cc(=O)n2Cc2ccco2)cc1 returned HSV replic up inactive, RGS16-Gao 101, PKD1 inh 1, GALR2 agonist -0.4 and HSV replic up primary fold 0.62.
Screening COC(=O)c1sc2[nH]c(=S)n(N)c(=O)c2c1C returned HSV replic up inactive, RGS16-Gao 139, PKD1 inh -4, INS promoter inh -9, INS promoter inh cell count 92 and HSV replic up primary fold 0.81.
`COc1ccc(-n2c(Cc3cc(=O)[nH]c(=O)[nH]3)nnc2SCC(=O)Nc2cc(C(F)(F)F)ccc2Cl)cc1` gave HSV replic up inactive, RGS16-Gao 102, PKD1 inh 7, INS promoter inh -255, INS promoter inh cell count 36 and HSV replic up primary fold 0.96.
COc1ccccc1NC(=O)N1CCC(c2nnc(SCC(N)=O)n2C)CC1 was read as HSV replic up inactive, RGS16-Gao 92, PKD1 inh -3, GALR2 agonist -1.7, INS promoter inh 20, INS promoter inh cell count 121 and HSV replic up primary fold 0.97.
For CCCS(=O)(=O)N1CCC(C(=O)NCCCN(CC)c2cccc(C)c2)CC1 the results were HSV replic up inactive, RGS16-Gao 106, PKD1 inh -15, GALR2 agonist -5.4 and HSV replic up primary fold 1.
Screening CCOc1ccc(Cc2nnc(N)s2)cc1OCC returned HSV replic up inactive, RGS16-Gao 99, PKD1 inh 4, GALR2 agonist -0.6, INS promoter inh -18, INS promoter inh cell count 157 and HSV replic up primary fold 0.98.

3 compounds from above, sorted by number of heavy atoms, low to high:
Screening COC(=O)c1sc2[nH]c(=S)n(N)c(=O)c2c1C returned HSV replic up inactive, RGS16-Gao 139, PKD1 inh -4, INS promoter inh -9, INS promoter inh cell count 92 and HSV replic up primary fold 0.81.
For NCCCC[C@H]1CN=C(N)N1CCC12CC3CC(CC(C3)C1)C2 the results were HSV replic up inactive, RGS16-Gao 105 and HSV replic up primary fold 1.1.
COc1ccc(-c2nn(-c3ccccc3)cc2/C=N/Nc2ccc(Cl)c(C(=O)O)c2)cc1OC was read as HSV replic up inactive, RGS16-Gao 96 and HSV replic up primary fold 1.1.

Going on with the list.
For COc1ccc(-n2cnnc2SCc2ncc(-c3ccccc3)o2)cc1 the results were HSV replic up inactive, RGS16-Gao 101, PKD1 inh 0, GALR2 agonist -2.3, INS promoter inh -8, INS promoter inh cell count 140 and HSV replic up primary fold 1.1.
Cn1c(C(=O)NCc2cccs2)cc2c(=O)n(C)c3ccccc3c21 was read as HSV replic up inactive, RGS16-Gao 99, PKD1 inh 1, GALR2 agonist -3.1 and HSV replic up primary fold 1.2.
Screening COc1ccc(N(C(=O)Cn2nnc3ccccc32)C(C(=O)NCc2ccco2)c2ccc(C)o2)cc1 (centres undefined) returned HSV replic up inactive, RGS16-Gao 85, PKD1 inh 6, GALR2 agonist -1.8, INS promoter inh -29, INS promoter inh cell count 97 and HSV replic up primary fold 0.81.
COc1ccccc1N1CC(C(=O)Nc2ccc(S(=O)(=O)N3CCOCC3)cc2)CC1=O (centres undefined) was read as HSV replic up inactive, RGS16-Gao 99, PKD1 inh -1, GALR2 agonist -1.8 and HSV replic up primary fold 1.
CC(=O)c1ccc(N2CCN(S(=O)(=O)c3ccccc3)CC2)c(F)c1 was read as HSV replic up inactive, RGS16-Gao 101, PKD1 inh 4 and HSV replic up primary fold 0.74.

Among those listed so far, these have an aryl thioether with sulfur outside any ring.
`Cc1ccc(CCc2nnc(SCC(=O)Nc3cccc(Cl)c3)n2-c2ccccc2)o1` gave RGS16-Gao 106, PKD1 inh -5 and GALR2 agonist -1.4.
Screening CSc1nc(-c2ccccc2)[nH]c(=S)c1C(C)=O returned HSV replic up inactive, RGS16-Gao 97, PKD1 inh -1, GALR2 agonist -3.4, INS promoter inh 13, INS promoter inh cell count 122 and HSV replic up primary fold 1.1.
COc1ccc(CN(C#N)c2nc(SC)nc(N(C)C)n2)cc1 was read as HSV replic up inactive, RGS16-Gao 107, PKD1 inh 1, GALR2 agonist -1.9 and HSV replic up primary fold 0.92.
Screening Cc1cc2nnc(SCC(=O)N3CCCCCC3)n2c(N)n1 returned HSV replic up inactive, RGS16-Gao 102, PKD1 inh -7 and HSV replic up primary fold 1.
`Cc1ccc(NC(=O)CSc2n[nH]c(=O)n2C2CC2)cc1S(=O)(=O)N1CCOCC1` gave HSV replic up inactive, RGS16-Gao 104, PKD1 inh -6, GALR2 agonist -0.1, INS promoter inh 21, INS promoter inh cell count 111 and HSV replic up primary fold 0.87.
CSc1nc2ccc(NS(=O)(=O)c3ccc(Br)s3)cc2s1 was read as HSV replic up inactive, RGS16-Gao 103 and HSV replic up primary fold 1.
`COc1ccc(-n2c(Cc3cc(=O)[nH]c(=O)[nH]3)nnc2SCC(=O)Nc2cc(C(F)(F)F)ccc2Cl)cc1` gave HSV replic up inactive, RGS16-Gao 102, PKD1 inh 7, INS promoter inh -255, INS promoter inh cell count 36 and HSV replic up primary fold 0.96.
COc1ccccc1NC(=O)N1CCC(c2nnc(SCC(N)=O)n2C)CC1 was read as HSV replic up inactive, RGS16-Gao 92, PKD1 inh -3, GALR2 agonist -1.7, INS promoter inh 20, INS promoter inh cell count 121 and HSV replic up primary fold 0.97.
For COc1ccc(-n2cnnc2SCc2ncc(-c3ccccc3)o2)cc1 the results were HSV replic up inactive, RGS16-Gao 101, PKD1 inh 0, GALR2 agonist -2.3, INS promoter inh -8, INS promoter inh cell count 140 and HSV replic up primary fold 1.1.

Source: PubChem BioAssay
